Screens from PubChem BioAssay.
VDR inh: blocks the human vitamin D receptor; VDR-SRC2-3 peptide fluorescence polarization, 2 h; AID 504847; actives 0.93% (n = 400,000); P11473; Potency, µM, for inactives: max response, negative = inhibition, most hits filed as inhibitors; active = well fitted inhibition curve with a large enough effect; inconclusive = small, poorly fitted or top-dose-only effect, or another doubt; inactive = no such curve, though single readings can be large or run the other way; note: series mostly up to about 120 µM
Target sequence (P11473 whole entry, looked up): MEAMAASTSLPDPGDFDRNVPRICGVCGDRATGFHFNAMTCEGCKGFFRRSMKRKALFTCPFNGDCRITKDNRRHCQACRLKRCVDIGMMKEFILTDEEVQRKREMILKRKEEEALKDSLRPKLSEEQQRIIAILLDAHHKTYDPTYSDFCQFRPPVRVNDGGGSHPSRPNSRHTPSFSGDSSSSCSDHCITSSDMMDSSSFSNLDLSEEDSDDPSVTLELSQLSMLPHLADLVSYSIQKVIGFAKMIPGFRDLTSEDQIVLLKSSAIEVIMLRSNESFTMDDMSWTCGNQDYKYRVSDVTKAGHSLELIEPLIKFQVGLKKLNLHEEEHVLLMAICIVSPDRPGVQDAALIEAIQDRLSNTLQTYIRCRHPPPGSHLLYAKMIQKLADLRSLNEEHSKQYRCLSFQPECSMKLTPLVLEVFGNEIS
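Signal is fluorescence polarization, reporting how far test compounds block the interaction of VDR with the SRC2-3 coregulator peptide after a 2 h room-temperature incubation.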
The depositor's hits bear a star; ? = inconclusive. % is set by controls: 0 for no effect and ±100 for the full control effect; potency is the fitted concentration of half-maximal effect.

SMILES	VDR inh
COc1ccccc1OCCSc1nc(-c2ccc(C(C)(C)C)cc2)nc2cc(=O)[nH]n12	5%
COc1ccccc1C(=O)NC(=O)Nc1nc(-c2ccccc2)cc(C(F)(F)F)n1	-23%
COc1ccc(-c2cc3nc(-c4ccccc4)cc(N4CCC(O)CC4)n3n2)cc1	4%
CCOc1ccc(S(=O)(=O)N2CCC(C(=O)NCc3ccco3)CC2)cc1C	5%
Cc1ccc(CNS(=O)(=O)c2ccc(Br)s2)cc1	6%
O=C1CC(c2ccccc2)CC(O)=C1C=NCCCO (configuration not stated)	3%
CCCc1cc(=O)oc2cc(OCC(=O)NCC(O)c3ccccc3)ccc12 (configuration not stated)	13%
CCc1nn(CC(=O)O)c(=O)c2ccccc12	-7%
N=c1oc2ccc(Cl)cc2cc1C(=O)NC1CCCCCC1	-10%
O=C(COC(=O)Cc1ccc(-c2ccccc2)cc1)NCc1ccc(F)cc1	-11%
OC1CCN(c2ncnc3c2nnn3Cc2c(F)cccc2Cl)CC1	1%
Clc1cccc(-c2nnc(SC/C=C/c3ccccc3)n2Cc2ccco2)c1	-6%
N#CC(C#N)=C1CCc2ccccc2N1	4%
c1ccc(-c2nnc3sc(-c4csc5c4CCCC5)nn23)cc1	?
Cc1cccc2nc(-c3ccccn3)c(Nc3ccc(F)cc3)n12	-21%
O=S(=O)(c1ccc(N2CCOCC2)cc1)N1CCOCC1	-6%
CC(Oc1ccc2c(-c3ccccc3)cc(=O)oc2c1)C(=O)NC(Cc1c[nH]c2ccccc12)C(=O)O (configuration not stated)	13%
COc1cccc2cc(C(=O)N3CCN(C45CC6CC(CC(C6)C4)C5)CC3)c(=O)oc12	6%
O=C(NCc1ccccc1)/C(=C\c1ccc([N+](=O)[O-])cc1)NC(=O)c1ccco1	1%
COC(=O)C1=C(C)N(Cc2ccccc2)C(=NCC(C)C)N[C@H]1c1ccccc1	4%
O=C(CN1CCCCCC1)Nc1ccccc1Cl	-11%
COc1cc(Cl)c(C)cc1NC(=O)c1cnc(N2CCCCC2)c2ccccc12	7%
COc1cc(-c2n[nH]c(=S)n2-c2cc(C(F)(F)F)ccc2Cl)cc(OC)c1OC	-16%
Cc1cccc(NC(=O)CN2CCN(C(=O)c3c(C)nn(Cc4ccccc4)c3C)CC2)c1C	-1%
Cc1c(Cl)ccc(S(=O)(=O)NCCN2CCOCC2)c1Cl	-10%
CNC(C)C(=O)NC(C(=O)N1CCCC1C(=O)NC1CCCc2ccccc21)C(C)C (configuration not stated)	-7%
CCOCCCN(C(=O)Cn1nnc(-c2ccc(C)o2)n1)C(C(=O)NC1CCCC1)c1ccco1 (configuration not stated)	0%
Cc1ccc(C(=O)COC(=O)C2CC3CCCC(C2)C3=O)cc1[N+](=O)[O-] (configuration not stated)	0%
COc1ccc(N(Cc2ccccc2)C(=O)c2nc(S(C)(=O)=O)ncc2Cl)cc1	?
O=C(CCc1ccccc1)NNC(=O)COc1ccccc1	2%
Cc1occc1C(=O)NCc1ccc(C(=O)O)o1	-7%
O=C1CC(C(=O)Nc2cccc(F)c2)n2ncnc2N1 (configuration not stated)	-5%
CCOCCCNC(=O)C1CCCN(Cc2nc(-c3ccc(CC)cc3)oc2C)C1 (configuration not stated)	-30%
CC(=O)NCc1ccc(-c2nc3ccccc3s2)cc1	-1%
Cc1ccc2oc3c(c(=O)c2c1)C(c1cccc(Br)c1)N(Cc1ccco1)C3=O (configuration not stated)	-4%
O=C(/C=C/c1ccco1)NC(=S)Nc1ccc(O)c(-c2nc3ccccc3s2)c1	-9%
COC(=O)c1cc2oc(C)cc2n1CC(=O)Nc1ccc(OC)c(OC)c1	3%
CNC(=O)c1sccc1SCc1ccc(Cl)cc1Cl	1%
O=C(CSc1nc2ccccc2c(=O)n1CCCN1CCOCC1)N1CCN(c2ccccc2)CC1	0%
COc1ccccc1N1CCN(C(=O)Cc2ccc(Cl)cc2)CC1	4%
CC1(C)[C@H]2CC[C@]1(C)[C@@H](OC(=O)C[N+]1(C)CCOCC1)C2	5%
O=C(Oc1ccc(-c2nc(-c3ccccn3)no2)cc1)c1ccccc1	23%
COc1ccc(C(CNC(=O)Cc2cccs2)N(C)C)cc1 (configuration not stated)	-5%
Nc1nc(-c2cccs2)c(NC(=O)c2ccccc2)s1	-87%
c1ccc2[nH]c(Cn3nnc4ccccc43)nc2c1	0%
CC(C)CN(C(=O)COC(=O)c1ccccc1SCC(=O)NC1CCCCCC1)C1CCS(=O)(=O)C1 (configuration not stated)	-7%
O=C(O)c1ccc(NC(=S)NC(=O)c2cccnc2)cc1	12%
CCC(C)N1C(=O)C2C(C(=O)Nc3cccc(OC)c3)C3C=CC2(O3)C1C(=O)NC1CCCCC1C (configuration not stated)	18%
CC1=NN(C(=O)c2ccccc2Br)C(O)(c2ccc(Cl)cc2)C1 (configuration not stated)	-15%
CC(C)NC(=O)CN1C(=O)c2cccc3cccc1c23	-3%
COc1ccccc1NC(=O)CSc1nc2n[nH]c(C)c2c(=N)n1-c1ccccc1Cl	-1%
CCCN1CNc2c(c(=O)[nH]c(=S)n2-c2ccc(Cl)cc2)C1	-3%
Cc1cc(=O)oc2c1c(C(F)(F)F)nn2-c1ccccc1	-7%
CN(C(=O)COC(=O)c1ccccc1SCC(=O)NC1CCCCCCC1)C1CCS(=O)(=O)C1 (configuration not stated)	-4%
CC(=O)N1CCCc2cc(S(=O)(=O)NC(C(=O)NC(C)c3ccccc3)C(C)C)ccc21 (configuration not stated)	-10%
Cc1cc(NC(=O)c2ccccc2O)nc(C)n1	7%
Cc1ccc(NC(=O)C2C3C=CC(O3)C2C(=O)O)cc1C (configuration not stated)	-1%
CC(=O)c1ccc(NC(=O)CSc2nc(=O)cc(N)n2-c2ccccc2)cc1	3%
N#CCCN(C(=O)CSc1nnc(-c2ccncc2)n1C1CC1)c1ccccc1	-15%
CS(=O)(=O)N(CC(=O)Nc1ccccc1C(=O)N1CCCC1)c1ccccc1Br	-4%

Next records:
SMILES	VDR inh
CCCN(CCC)S(=O)(=O)c1ccc(N2CCCCS2(=O)=O)cc1	-2%
CN(CCc1ccccc1)C(=O)c1ccc(NC(=O)Cc2ccc(NC(=O)C3CCCN(C(=O)C4CCC4)C3)cc2)cc1 (configuration not stated)	-6%
Cc1ccc(S(=O)(=O)/C(C#N)=C/c2c(N3CC(C)OC(C)C3)nc3c(C)cccn3c2=O)cc1 (configuration not stated)	19%
CC(=O)c1cccc(NC(=O)c2ccc(C)o2)c1	-17%
C#CCOCCOCCOCCNc1nc(N2CCN(C(=O)C([C@@H](C)O)n3cc([C@@H](N)CCCCN)nn3)CC2)nc(N2CCN(C(=O)[C@H](CCCCN)n3cc([C@@H](N)[C@H](C)CC)nn3)CC2)n1 (some centres not stated)	8%
CCc1cc2c(=O)c(-c3nc(C)cs3)coc2cc1OC(C)C(=O)NCCO (configuration not stated)	13%
O=C(NCCCN1CCN(c2ccccc2)CC1)Nc1ccccc1C(F)(F)F	?
NC1=NC(=O)C(Cc2ccc(Br)cc2)S1 (configuration not stated)	-2%
CCN(CC)C(=O)Cn1cc(SCC(=O)Nc2ccccc2C)c2ccccc21	5%
CCOc1cc(N2CCOCC2)c(OCC)cc1NC(=O)CSc1ncccn1	-15%
Fc1ccc(CNc2cnccn2)cc1	-7%
O=C(NCc1ccncc1)NC12CC3CC(CC(C3)C1)C2	5%
Cc1nc2ccccc2c(=O)n1NC(=O)/C=C/c1ccccc1	9%
COc1cccc(-c2ccc3ncnc(NCc4cnc(C)cn4)c3c2)c1	-15%
O=C(CCCCCn1c(=O)c2sccc2n(CC(=O)Nc2ccccc2F)c1=O)NCc1ccc2c(c1)OCO2	-9%
COCCn1c(CN2CCN(C(c3ccccc3)c3ccccc3)CC2)nc2c1c(=O)n(C)c(=O)n2C	-6%
Cc1cc(NC(=O)CSc2nnnn2-c2ccc(F)cc2)no1	-21%
CCc1ccc(-n2c(=O)c3c4c(sc3n(CC(=O)NC(C)CC)c2=O)CCCC4)cc1 (configuration not stated)	5%
O=C(Cn1cnc2c(oc3ccccc32)c1=O)N1CCCC1	-11%
Cc1ccc(/C=C/C(=O)O)cc1S(=O)(=O)NC1CCS(=O)(=O)C1 (configuration not stated)	-1%
Cc1csc(Nc2ccccc2)[n+]1-c1ccccc1	-5%
COc1ccc(N2CCN(C(=O)CCc3nnc4ccc(N5CCOCC5)nn34)CC2)cc1	5%
COc1ccc(OC)c(Nc2ncnc3c2nc2n3CCCC2)c1	15%
COc1ccc(NC(=O)C(NC(=O)/C=C\c2ccc3c(c2)OCO3)c2ccccc2)cc1 (configuration not stated)	-17%
O=C1C2CC=C(Cl)CC2C(=O)N1CCC[n+]1ccccc1 (configuration not stated)	-2%
COc1ccccc1C(=O)NCCOc1ccc(C)c(C)c1	-11%
Cc1ccc(C)c(S(=O)(=O)N2CCN(CC(=O)NC(=O)NCc3ccccc3)CC2)c1	-7%
CC(C)c1ccc(N=C(N)N=C(N)N)cc1	-10%
O=C(NCCc1ccc(Cl)cc1)c1cccs1	8%
CCn1cc(C(=O)NCCCN2CCC(C)CC2)c(=O)c2cc(S(=O)(=O)N3CCCC3)ccc21	-1%
Cc1[nH]c2ccc(C(=O)N3CCCCC3)cc2c1C	15%
COc1ccc(C(=O)c2ccc3oc(-c4ccc(OC)cc4)c(-c4ccc(O)cc4)c3c2)cc1	-13%
Cc1ccc(NC(=O)c2cnc(SCC(=O)NCC3CCCO3)n(C)c2=O)cc1 (configuration not stated)	-20%
COc1cc(C2NC(=O)NC(O)(C(F)(F)F)C2C(=O)c2cccs2)ccc1O (configuration not stated)	-5%
CCC1CC(/C(C)=N/NC(N)=O)OC1=O (configuration not stated)	6%
CC(=O)Nc1ccc(C2=CC(=O)C[C@H](c3ccc4c(c3)OCO4)C2)cc1	?
COc1ccc(OC)c(NC(=O)COc2ccc(S(=O)(=O)N3CCCC3)cc2)c1	-5%
CCc1nc(Nc2cccc(F)c2)c2oc3ccccc3c2n1	-22%
CC(C)(C)C(=O)O/N=C(\N)c1c(Cl)cccc1Cl	11%
COC(=O)c1ccc(C(=O)Nc2ccc(C(C)C)cc2N)cc1	-7%
Cc1ccc(NC(=O)C2CCCN(S(=O)(=O)c3ccc4[nH]c(=O)ccc4c3)C2)cc1Cl (configuration not stated)	4%
CCc1c(C(=O)NNC(=S)NCCc2ccccc2)csc1C	-7%
COc1ccc(NC(=O)COC(=O)CCc2nc3ccccc3c(=O)[nH]2)c(OC)c1	-2%
COc1cccc(CC(=O)Nc2ccc(S(=O)(=O)N3CCCCC3)cc2)c1	6%
CC1(C)CC(=O)c2sc(NC(=O)Cc3cccs3)nc2C1	1%
Cc1cnc(C(=O)OCC(=O)N2C(C)CCCC2C)cn1 (configuration not stated)	-17%
CCN1C[C@@H]2[C@@H]3C(=O)N(Cc4ccccc4)C(=O)[C@@H]3[C@](C)(C1=O)N2C(=O)c1ccc(C(F)(F)F)cc1	-8%
O=C(/C=C/c1ccc(OCc2ccccc2)c(OCc2ccccc2)c1)c1cccnc1	?
COc1ccc2[nH]c(C(=O)N(Cc3ccccn3)Cc3ccccn3)cc2c1	-10%
COC(=O)c1oc2ccc(Br)cc2c1NC(C)=O	?
Cc1cccc(NC(=O)CCc2ccccc2)c1	13%
Cc1ccc(/C=C/C2=NN(Cc3ccc(Cl)c(Cl)c3)C(=O)CC2)cc1	22%
Cc1ccc(C(=O)Nc2ccc3oc(-c4ccccc4C)nc3c2)cc1	7%
CCC(=O)Nc1ccc(NC(=O)c2cccc3ccccc23)cc1	-1%
O=C(NCCNC(=O)c1ccc(Br)o1)c1ccc(Br)o1	-9%
O=S(=O)(c1ccc2oc(=S)[nH]c2c1)N1CCOCC1	?
O=C(NCc1ccco1)c1cnn2c(C(F)(F)F)cc(-c3ccccc3)nc12	-3%
CC(C)(C)OC(=O)N1CCCC(C(=O)Nc2ccc(C(=O)NC3CC3)cc2)C1 (configuration not stated)	11%
COc1ccc(NC(=S)NNC(=O)COc2ccc(Cl)cc2Cl)cc1	-14%
CCn1cc(C(=O)Nc2ncccc2O)c(=O)c2cc(F)c(N3CCN(C(=O)c4ccco4)CC3)cc21	-11%

Overlap with the part before: 2 entries; new compounds follow.
SMILES	VDR inh
COc1ccc(NC(=S)NNC(=O)COc2ccc(Cl)cc2Cl)cc1	-14%
CCn1cc(C(=O)Nc2ncccc2O)c(=O)c2cc(F)c(N3CCN(C(=O)c4ccco4)CC3)cc21	-11%
O=C(/C=C/NNC(=O)c1cccc(Br)c1)c1ccccc1	0%
Cc1c(NC(=O)c2nc3ccccc3nc2N2CCCCC2)cccc1[N+](=O)[O-]	17%
CN(CC(=O)Nc1ccc(N2CCOCC2)cc1)C(=O)COc1ccccc1F	-3%
O=C(Nc1ccc(Cl)cc1)N1CCCN(c2ccc(C(F)(F)F)cc2[N+](=O)[O-])CC1	1%
CCCCOc1ccc(CNC(=O)CN2C(=O)CCn3nc(-c4cn(C)c5ccccc45)cc32)cc1	12%

Structural class: the entries above containing an aryl thioether with sulfur outside any ring
SMILES	VDR inh
COc1ccccc1OCCSc1nc(-c2ccc(C(C)(C)C)cc2)nc2cc(=O)[nH]n12	5%
Clc1cccc(-c2nnc(SC/C=C/c3ccccc3)n2Cc2ccco2)c1	-6%
CNC(=O)c1sccc1SCc1ccc(Cl)cc1Cl	1%
O=C(CSc1nc2ccccc2c(=O)n1CCCN1CCOCC1)N1CCN(c2ccccc2)CC1	0%
CC(C)CN(C(=O)COC(=O)c1ccccc1SCC(=O)NC1CCCCCC1)C1CCS(=O)(=O)C1 (configuration not stated)	-7%
COc1ccccc1NC(=O)CSc1nc2n[nH]c(C)c2c(=N)n1-c1ccccc1Cl	-1%
CN(C(=O)COC(=O)c1ccccc1SCC(=O)NC1CCCCCCC1)C1CCS(=O)(=O)C1 (configuration not stated)	-4%
CC(=O)c1ccc(NC(=O)CSc2nc(=O)cc(N)n2-c2ccccc2)cc1	3%
N#CCCN(C(=O)CSc1nnc(-c2ccncc2)n1C1CC1)c1ccccc1	-15%
CCN(CC)C(=O)Cn1cc(SCC(=O)Nc2ccccc2C)c2ccccc21	5%
CCOc1cc(N2CCOCC2)c(OCC)cc1NC(=O)CSc1ncccn1	-15%
Cc1cc(NC(=O)CSc2nnnn2-c2ccc(F)cc2)no1	-21%
Cc1ccc(NC(=O)c2cnc(SCC(=O)NCC3CCCO3)n(C)c2=O)cc1 (configuration not stated)	-20%

This is a subset; count on the stated rates, not on these rows.
